Compound activity as filed in PubChem.
Ecoli growth = blocks Escherichia coli growth; OD600, 23 h; active compounds read low; OD600 absorbance (concentration not given with the values); actives 0.21% (n = 330,000);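 active = OD600 absorbance below the run mean of sample wells minus 3.6 SD, in any replicate, cut at about 0.56 in these data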;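 also: stock transfer was 300 nL into about 60 µL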
FGF22 binding = shifts melting point of recombinant human FGF22; actives 1.5% (n = 340,000); Q9HCT0; calls only at 9.99 µM; AID 651658; recombinant FGF22 thermal shift, SYPRO orange fluorescence; percent of sucrose octasulfate shift, DMSO zero;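 active = melting point raised past a set limit in the mean and every replicate; inconclusive = no clear call; three in four hits are not shown here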
Target sequence (Q9HCT0 whole entry, looked up): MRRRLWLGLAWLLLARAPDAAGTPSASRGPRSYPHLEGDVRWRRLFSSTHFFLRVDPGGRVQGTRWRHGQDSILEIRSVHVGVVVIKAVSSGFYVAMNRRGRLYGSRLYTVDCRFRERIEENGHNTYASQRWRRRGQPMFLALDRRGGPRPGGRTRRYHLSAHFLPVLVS
AF4-AF9 inh = blocks AF4 peptide binding to human AF9 | inhibition, % at 10 µM | actives 0.47% (n = 350,000) | P42568 | AlphaScreen, biotin-AF4 peptide binding to FLAG-AF9;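 active = every replicate reaching a set inhibition limit, whatever the replicate mean, cut at about 25% in these data; inconclusive = mean inhibition reaches that limit but some replicates miss it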;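 also: 0% = plate neutral control median and 100% = total signal loss; the record names both 10 and 1 µM as test concentration; the first replicate is given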
UCH37 inh = blocks the human deubiquitinase UCH37; actives 0.33% (n = 330,000); Q9Y5K5; inhibition, % (no concentration beside the values); purified proteasome/UCH37, Ub-AMC cleavage fluorescence;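 active = mean of two replicates above 20%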;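 also: 0% = compound-free wells with enzyme and 100% = wells lacking proteasome; stock transfer was 100 nL into about 20 µL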
Target sequence (Q9Y5K5 whole entry, looked up): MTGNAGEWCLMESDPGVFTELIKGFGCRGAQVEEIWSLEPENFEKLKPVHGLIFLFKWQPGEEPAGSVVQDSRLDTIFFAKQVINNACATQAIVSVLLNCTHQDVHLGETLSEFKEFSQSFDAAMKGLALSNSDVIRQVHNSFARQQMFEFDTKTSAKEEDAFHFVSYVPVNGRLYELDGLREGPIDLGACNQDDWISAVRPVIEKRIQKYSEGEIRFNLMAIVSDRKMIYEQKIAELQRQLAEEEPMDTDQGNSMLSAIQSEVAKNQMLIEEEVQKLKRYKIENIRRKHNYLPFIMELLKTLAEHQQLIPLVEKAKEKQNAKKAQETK
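Material: human UCH37 enzyme supplied as purified proteasome complex / Amount: 0.15 nM proteasome as dispensed / Buffer or medium: pH 7.4 Tris-HCl (50 mM) with ovalbumin, ATP-MgCl2, DTT / Times: preincubation 30 min, reaction 25 min, room temperature / Technique: AMC fluorescence from Ub-AMC cleavage, excitation 355 nm, emission 460 nm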
Vif A3G = HIV-1 Vif–A3G interaction blockers – biochemical, TR-FRET, GST-Vif 1-94, biotin-A3G peptide, dose response retest, primary screen (AID 1117319). TR-FRET GST-Vif / biotin-A3G peptide binding; higher % means a stronger effect; test concentration not given here; strong numbers were not always called active. inhibition, %; hits with a dose series show IC50 in µM. actives 0.57% (n = 260,000);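 active = above the screen mean plus three standard deviations and confirmed in dose response; inconclusive = results disagree or hit not tested in dose response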;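 also: Vif residues 1-94 fused to GST binding biotinylated APOBEC3G peptide 110-148; 0% = full assay without inhibitor and 100% = GST in place of GST-Vif; retest series ran down from 100 µM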
HNF4A DNA FP = change in binding of human HNF4 alpha to DNA; HNF4a-FITC DNA binding, fluorescence polarization, 1 h; activity change, % at 10 µM; actives 0.3% (n = 360,000); in the data active = activity change above about 30%, passing the limit was not always enough;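 also: controls were the assay level and a saturating level of protein; the project sought stronger binding though the title names inhibitors; some compounds called inactive have numbers as strong as hits; positive values seem to mean higher polarization but the record does not say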
Target sequence (P41235 whole entry, looked up): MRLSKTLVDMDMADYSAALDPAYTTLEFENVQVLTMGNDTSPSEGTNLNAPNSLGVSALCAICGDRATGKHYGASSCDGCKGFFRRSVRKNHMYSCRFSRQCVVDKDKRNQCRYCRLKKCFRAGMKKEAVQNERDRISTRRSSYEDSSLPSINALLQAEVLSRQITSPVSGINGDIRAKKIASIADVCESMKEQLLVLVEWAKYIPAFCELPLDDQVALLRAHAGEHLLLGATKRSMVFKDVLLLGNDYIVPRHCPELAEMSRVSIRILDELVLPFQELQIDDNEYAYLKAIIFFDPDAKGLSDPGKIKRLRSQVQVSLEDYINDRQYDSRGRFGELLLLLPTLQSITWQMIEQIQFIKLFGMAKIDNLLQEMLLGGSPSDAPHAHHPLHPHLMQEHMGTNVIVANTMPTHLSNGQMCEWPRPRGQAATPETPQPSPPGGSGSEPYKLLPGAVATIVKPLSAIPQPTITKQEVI
RanGTP-Imp inh = disruptors of Ran-importin-beta complex formation – biochemical, FRET, CFP-Ran, YFP-importin-beta, homogeneous, primary screen; cell-free CFP-Ran/YFP-importin-beta FRET ratio; inhibition, % (no concentration beside the values); actives 1.1% (n = 300,000);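 active = most replicates above 15%; inconclusive = exactly half above 15%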;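 also: 0% = DMSO wells and 100% = Ran loaded with GDP instead of GTP; wells of about 40 µL received 100 nL stock; the first replicate is given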
The depositor's hits bear a star; i = inactive; ? = inconclusive; . = no result given; + = active, no number; & = joins results of further samples.

SMILES | Ecoli growth | FGF22 binding | AF4-AF9 inh | UCH37 inh | Vif A3G | HNF4A DNA FP | RanGTP-Imp inh
O=S(=O)(c1ccc(F)c(F)c1)N1CCN(c2ccccn2)CC1 | 0.66 | i | -2.0 | 0.0 | . | 0.2 | 1.7
COc1cccc(CN(C)C(=O)c2cccc(S(=O)(=O)NCc3ccccc3)c2)c1OC | 0.65 | i | 1.4 | 0.6 | -1% | -1.1 | -1.9
C[C@@H]1CN([C@H](C)CO)C(=O)CCCn2cc(nn2)CO[C@H]1CN(C)S(=O)(=O)c1ccccc1C#N | . | i | -3.5&-2.4 | . | 4% | -3.5 | .
COc1ccc(/C=C2/SC(=O)N(CCNC(=O)C3COc4ccccc4O3)C2=O)cc1 (stereo unspecified) | 0.66 | . | . | 1.9 | 27% | -1.1 | 1.9
O=C(O)CCCCCNC(=O)CSc1nnc(-c2ccco2)n1-c1ccccc1 | 0.67 | i | 1.1 | 0.2 | 1% | 5.2 | 0.9
COc1ccc(CC(=O)Nc2nncs2)cc1OC | 0.65 | i | -0.2 | -0.1 | -7% | -0.9 | 2.5
O=C(c1ccc(Cl)s1)N1CCN(C23CC4CC(CC(C4)C2)C3)CC1 | 0.63 | . | . | 0.8 | . | -2.8 | -1.5
COc1ccc(N(CC(=O)O)S(=O)(=O)c2cccnc2)cc1 | 0.71 | . | . | 2.1 | -2% | 0.8 | -0.5
C=CCn1c(SCC(=O)N2CCOCC2)nc2c([nH]c3ccccc32)c1=O | 0.67 | i | -0.4 | 3.4 | 9% | 1.9 | 1.4
COc1ccc(/C=C/C(=O)C(C(N)=O)=C2SCCS2)cc1 | 0.69 | i | 0.2 | 4.9 | 2% | -2.2 | 13
O=C(O)/C=C/C(=O)Nc1ccc2c(c1)C(=O)c1ccccc1C2=O | 0.69 | i | . | 12 | 12% | 1.3 | -1.2
O=C(Cn1nc(-c2ccc(Cl)cc2)c2ccccc2c1=O)NN1CCOCC1 | 0.67 | i | 2.2 | 2.6 | 2% | 1.1 | 3.1
COC(=O)C1C(=O)C2=C(CC1C)NC(C)=C(C(=O)OC(C)C)C2c1ccc(C)o1 (stereo unspecified) | 0.65 | . | . | -14 | -2% | -2.4 | 5.9
Cc1ccc(CNC(=O)CCSCc2ccccc2F)cc1 | 0.67 | i | -3.8 | 2.1 | -5% | -2.7 | -0.8
CCN(CC)S(=O)(=O)c1cccc(NC(=O)c2cc3ccccc3o2)c1 | 0.74 | . | . | 1.3 | -10% | 0.6 | -2.9
COc1ccc(NC(=O)CSc2nccn2C)cc1S(N)(=O)=O | 0.68 | + | -20 | 0.1 | 2% | -0.5 | 3.6
CCn1nccc1NC(=O)c1csc([C@@H]2O[C@H](CO)[C@H](O)[C@H](O)[C@H]2O)n1 | . | i | -5.8 | . | . | 3.1 | .
Clc1ccc(Cn2nnc3ccccc32)cc1 | 0.6 | i | -1.1 | 5.4 | -2% | 0.9 | 2.0
CC(C)(C)c1ccc(OC(=O)c2ccc3nsnc3c2)cc1 | 0.69 | . | . | 1.9 | -4% | 0.8 | 3.2
CCc1nc2c(OCCC3CCCCC3)cccn2c1N(C=O)Cc1ccccc1 | . | i | 2.8 | . | . | -0.6 | .
O=C(NCc1cccnc1)c1ccc(-c2ccc(F)c(F)c2)c2ccoc12 | . | i | -5.8 | . | . | 3.2 | .
CC(NC(=O)Nc1cccc([N+](=O)[O-])c1)(C(F)(F)F)C(F)(F)F | 0.63 | . | . | 5.9 | -1% | -2.8 | 3.6
O=C(Nc1ccc(F)c(Cl)c1)C1CC2CCC1C2 (stereo unspecified) | 0.65 | i | -3.9 | 5.9 | . | 0.6 | -1.4
Cc1ccc2c(c1)C1CN(C)CCC1N2C(=O)c1cccc(S(=O)(=O)N(C)C)c1 (stereo unspecified) | 0.71 | i | -3.2 | 6.4 | . | 0.3 | 3.4
CN(C)c1ccc(N2C(=NC(=O)COc3ccccc3)SC3CS(=O)(=O)CC32)cc1 (stereo unspecified) | 0.69 | i | 3.8 | 4.3 | . | 0.1 | -0.6
COCCOc1cc(NC(=O)c2sccc2Oc2ccc([N+](=O)[O-])cc2F)c(Cl)cc1Cl | 0.81 | . | . | 4.5 | 4% | -1.2 | -1.8
FC(F)(F)c1cccc(Sc2nc(-c3ccccc3)nnc2C(F)(F)F)c1 | 0.71 | . | . | 2.4 | ? | -2.4 | -4.8
COc1ccc2c(c1OC)C(=O)N(c1ccc(C)c(C)c1)C2=O | 0.75 | . | . | -0.5 | 3% | 1.3 | 75*
N#C/C(C(N)=O)=C1/CCc2ccccc2N1 | 0.64 | . | . | 8.2 | -3% | -1.1 | 2.4
COc1ccc(S(=O)(=O)N(C)C[C@H]2Oc3ncc(Br)cc3C(=O)N([C@@H](C)CO)C[C@@H]2C)cc1 | . | i | -0.9&-1.5 | . | 1% | 1.5 | .
CCC(CC)C(=O)c1c[nH]c(C(=O)N2CCN(c3ccc(OC)cc3)CC2)c1 | 0.7 | i | 4.0 | -0.5 | -2% | 3.1 | -1.2
CCOC(=O)c1csc(NC(=O)CCSc2ccccc2)n1 | 0.68 | i | -0.8 | -0.1 | -2% | -7.8 | ?
COc1cc2oc3ccc(C#Cc4ccc(N)cc4)cc3c(=O)c2cc1OC | 0.65 | i | -1.7 | -2.3 | . | -1.3 | -1.2
CCc1c(C)sc(NC(=O)C2CC(c3c(F)cccc3Cl)=NO2)c1C#N (stereo unspecified) | 0.72 | i | 0.2 | 0.0 | -2% | 1.4 | 0.0
CCn1c(SCC(=O)Nc2ccc(C(C)=O)cc2)nnc1C1CC1 | 0.69 | i | 1.0 | 0.9 | . | 2.2 | 1.1
CCN(C(=O)CSc1nnc(-c2ccccc2)o1)c1c(N)n(Cc2ccccc2)c(=O)[nH]c1=O | 0.7 | i | -4.0 | 3.2 | . | -0.1 | 0.1
COc1ccc(OCC(O)Cn2c(=N)n(Cc3ccccc3)c3ccccc32)cc1 (stereo unspecified) | 0.67 | . | . | 6.2 | 4%&5% | 1.1 | ?
Cc1cc(-c2cccnc2)c(C#N)c(SCc2cccc(F)c2)n1 | 0.77 | . | . | 1.3 | -9% | 28 | 0.8
O=C(C(=O)N1CCN(c2ccncc2)CC1)c1cccc(Br)c1 | . | i | 2.9 | . | . | 5.7 | .
CCOc1ccc(C2C(C#N)=C(N)Oc3cc(O)ccc32)cc1OCC (stereo unspecified) | 0.68 | i | 2.6 | 2.1 | . | 0.0 | 51*

Next section (5 carried over from the part before).
SMILES | Ecoli growth | FGF22 binding | AF4-AF9 inh | UCH37 inh | Vif A3G | HNF4A DNA FP | RanGTP-Imp inh
CCN(C(=O)CSc1nnc(-c2ccccc2)o1)c1c(N)n(Cc2ccccc2)c(=O)[nH]c1=O | 0.7 | i | -4.0 | 3.2 | . | -0.1 | 0.1
COc1ccc(OCC(O)Cn2c(=N)n(Cc3ccccc3)c3ccccc32)cc1 (stereo unspecified) | 0.67 | . | . | 6.2 | 4%&5% | 1.1 | ?
Cc1cc(-c2cccnc2)c(C#N)c(SCc2cccc(F)c2)n1 | 0.77 | . | . | 1.3 | -9% | 28 | 0.8
O=C(C(=O)N1CCN(c2ccncc2)CC1)c1cccc(Br)c1 | . | i | 2.9 | . | . | 5.7 | .
CCOc1ccc(C2C(C#N)=C(N)Oc3cc(O)ccc32)cc1OCC (stereo unspecified) | 0.68 | i | 2.6 | 2.1 | . | 0.0 | 51*
CCOc1cc(/C=C2\SC(=S)N(NS(=O)(=O)c3ccccc3)C2=O)ccc1O | 0.63 | i | 3.1 | 13 | -15% | 15 | -9.6
CCOC(=O)CSc1nnc(-c2ccc(S(=O)(=O)N3CCC(C)CC3)cc2)o1 | 0.72 | . | . | 1.2 | 7% | 2.3 | 1.3
Nc1nc(NCc2ccccc2Cl)n(-c2ccccc2)n1 | 0.66 | i | -0.7 | 0.4 | . | 1.4 | 2.5
CCCN1C(=O)NC2(O)C(=O)c3ccccc3C12O (stereo unspecified) | 0.73 | . | . | 5.4 | ? | -3.3 | 1.1
Cn1cc(Cl)c(C(=O)N2CCN(c3ncccn3)CC2)n1 | 0.73 | . | . | -0.8 | 14% | -0.3 | -0.1
CC1CN(S(=O)(=O)c2cccc(C(=O)Nc3ccc(S(=O)(=O)NC4=NCCCCC4)cc3)c2)CC(C)O1 (stereo unspecified) | 0.69 | i | 3.0 | 5.6 | 7% | 3.1 | -1.6
COc1ccc(C(=O)Nc2nc(CC(=O)NCc3c(F)cccc3F)cs2)cc1 | . | i | -9.4 | . | . | -0.2 | .
CC(C)(C)Nc1c(N)c(=O)oc2ccccc12 | 0.63 | . | . | 5.4 | ? | -0.5 | 3.4
Cc1ccc(C(C)NC(=O)c2ccco2)cc1C (stereo unspecified) | 0.67 | . | . | 3.0 | 23% | 0.4 | -2.3
CCOc1ccc(S(=O)(=O)Nc2ccc(Cl)cn2)c(C)c1C | 0.7 | . | . | 4.1 | 1% | 2.1 | -0.3
COC(=O)c1cc(NC(=O)c2c(-c3c(Cl)cccc3Cl)noc2C)ccc1N1CCOCC1 | 0.68 | i | 0.2 | -2.3 | . | 2.0 | 3.9
Clc1ccccc1-c1nnc2sc(-c3ccncc3)nn12 | 0.76 | i | 0.5 | 2.0 | 17% | 5.4 | 3.5
O=C(CSc1ccccc1)N(c1ccc(Br)cc1)c1nccs1 | 0.69 | . | . | 4.1 | -6% | 0.2 | ?
Cc1cc(NC(=O)Nc2cc(F)ccc2F)no1 | 0.66 | i | -1.1 | 3.6 | . | -1.1 | 6.1
C/C(=N/NC(=O)CN1CCN(S(=O)(=O)c2ccc(C)cc2)CC1)c1ccco1 | . | i | -16 | . | . | 5.2 | -3.2
COc1ccc(Cl)cc1Nc1cc(C)nc2nc(C)nn12 | 0.7 | i | 0.5 | 4.5 | 22% | -4.8 | 0.0
COc1cc(C2/C(=C(\O)c3cc(C)ccc3C)C(=O)C(=O)N2CCN(C)C)ccc1O (stereo unspecified) | 0.71 | . | . | 6.7 | 1% | 3.5 | -2.1
COc1ccc(C(C)=O)cc1CS(=O)(=O)CC(=O)O | 0.65 | i | -2.9 | 3.5 | 6% | 2.1 | 0.1
C/C(=N\NC(=O)c1[nH]c2c([N+](=O)[O-])cc(C)cc2c1-c1ccccc1)c1cccnc1 | . | . | . | . | -1% | -4.7 | -4.6
Cc1ccc(NC(=O)c2ccc(Nc3c([N+](=O)[O-])cc([N+](=O)[O-])cc3[N+](=O)[O-])cc2)cc1 | 0.69 | i | 0.1 | 6.0 | ? | -3.8 | -0.4
CC(=O)c1ccc(Oc2cc(C)nc(NCc3ccccc3)n2)cc1 | 0.74 | . | . | 0.7 | -6% | -0.3 | 0.9
COc1ccc(NC2CCCN(C(=O)CCn3cccn3)C2)cc1 (stereo unspecified) | 0.65 | i | -2.0 | 2.2 | -2% | -1.1 | -2.1
Cc1ccccc1NC(=O)COc1ccccc1C | 0.68 | i | -7.7 | 1.8 | . | 1.2 | ?
COc1ccc(Cn2nnc3c(=O)[nH]c(C4CCN(S(=O)(=O)c5ccc(C)cc5)CC4)nc32)cc1 | 0.73 | i | -0.2 | 6.8 | 10% | -1.1 | 0.7
Cc1ccc(S(=O)(=O)NC(=O)c2cccc(C)c2)cc1 | 0.73 | i | 2.3 | 0.3 | 0% | -1.2 | 8.7
CCN(CC(=O)NCc1ccc(Cl)cc1)C(=O)CSc1cc(C)ccc1C | 0.66 | i | -10 | 1.4 | . | -2.8 | 2.2
O=C(O)c1ccc(-n2c(/C=C/c3ccccc3)nc3ccccc3c2=O)cc1 | 0.7 | i | -3.0 | 11 | 1% | -2.1 | -4.0
CC(C)c1ccc(NC(=S)NNC(=O)c2cccs2)cc1 | 0.66 | i | 8.9 | 2.8 | 6% | 0.2 | 5.3

The list is partial; rates above refer to the full screens.
